# Screening data as filed in PubChem.
# Proteasome disasm: blocks ATP-dependent breakdown of the yeast 26S proteasome | hit rate 0.2% among 24,000 | inhibition of disassembly, % (no concentration beside the values) | anti-FLAG beads, GFP-proteasome disassembly, flow cytometry;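 active means above 40%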;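 further: plate controls were ATP control with full disassembly for no effect and ATP-gamma-S intact proteasomes for full effect; higher percent means more bead fluorescence retained so stronger block of disassembly; stock transfer was 100 nL into about 10 µL; wells with too few beads may also be inconclusive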
# VCAM-1 rise: boosters of cytokine-driven VCAM-1 levels – cell-based, plate reader, pooled HUVEC, TNFa stimulus (AID 455). HUVEC TNFa-induced VCAM-1 immunofluorescence, plate reader; numbers were filed only for top-ranked candidate wells. augmentation, % at 5 µM. hit rate 0.2% among 10,000;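 active means a compound raising TNF-alpha-driven VCAM-1 surface staining, with its hit status upheld on visual or statistical review; inactive means the rest, including hits rejected on review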;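 further: 0% = TNFa with vehicle and 100% = strongest image-checked hit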
# Starred values were filed as active, the others as inactive; i = inactive; nt = no result given. An excerpt; the hit share may differ from the screen's.
SMILES,Proteasome disasm,VCAM-1 rise
Cc1ccc2c(c1)NCC(C(=O)NC1CCC(C)CC1)O2 (configuration not stated),-0.2,nt
CCC(Cc1ccccc1)NC(=O)CN1C(=O)CSc2ncccc21 (configuration not stated),-2.9,nt
Cn1c(=O)cc(OCC(=O)NC2CCCCC2)c2ccccc21,0.3,nt
Cc1nnc(N(Cc2ccco2)C(=O)c2cccc(C#N)c2)s1,1.8,i
COC(=O)c1ccc(OCc2nc(N)nc(N3CCOCC3)n2)cc1,0.2,nt
CCc1cccc2c(=O)c(C(=O)N3CCCCCC3)c[nH]c12,-5.5,i
NC(=O)NC(c1ccccc1)c1ccccc1F (configuration not stated),-0.3,i
Cc1ccc(Cn2c(NCCc3ccccc3)nc3c2c(=O)n(C)c(=O)n3C)cc1,-3.8,i
O=C(CC(=O)c1cc(Cl)ccc1O)c1ccccc1,-2.0,i
CC(C)(C)NC(=O)CN(Cc1cccs1)C(=O)c1csnn1,2.0,i

# Part of the list above, with each value named:
Molecule: CCC(Cc1ccccc1)NC(=O)CN1C(=O)CSc2ncccc21 (configuration not stated)
- Proteasome disasm = -2.9
- VCAM-1 rise = nt
Molecule: Cn1c(=O)cc(OCC(=O)NC2CCCCC2)c2ccccc21
- Proteasome disasm = 0.3
- VCAM-1 rise = nt
Molecule: Cc1nnc(N(Cc2ccco2)C(=O)c2cccc(C#N)c2)s1
- Proteasome disasm = 1.8
- VCAM-1 rise = i
Molecule: COC(=O)c1ccc(OCc2nc(N)nc(N3CCOCC3)n2)cc1
- Proteasome disasm = 0.2
- VCAM-1 rise = nt

# (continued)
SMILES,Proteasome disasm,VCAM-1 rise
O=C(Nc1cccc2c1CCCC2)C1CCN(c2nnnn2-c2ccccc2)CC1,0.4,i
CCN(CCNC(=O)c1cccc(N2CCCC2=O)c1)c1ccccc1,2.0,nt
CC1=Nn2c(nnc2-c2ccccc2)SC1,-3.2,i
CC(C)NC(=O)c1ccccc1NC(=O)c1ccccc1N(C)S(C)(=O)=O,-0.2,i
CCOc1ccccc1-c1nc(C(N)=O)c2[nH]c(=O)n(-c3cccc(C)c3)c2n1,3.4,nt
Cn1c(=O)c2c(ncn2CC(=O)OCC(=O)NC2CCCc3ccccc32)n(C)c1=O (configuration not stated),0.9,i
Cc1cc(C)c(C(=O)CSc2nnc(-c3ccccc3Br)o2)cc1C,0.4,i
CCOc1ccc2ccccc2c1C(=O)N1CCN(c2ccccc2)CC1,-2.8,i
O=C(NCCN1CCN(c2ccccc2)CC1)C1CCN(S(=O)(=O)c2cccc3nonc23)CC1,-2.1,nt
CCNC(=O)C1CC(=O)N(Cc2ccc3c(c2)OCO3)C(=Nc2ccc(OCC)cc2)S1 (configuration not stated),-0.3,i
O=C(CN1CCN(C(=O)c2cccs2)CC1)Nc1ccc(Br)cc1,0.9,nt
c1cc(-c2nn[nH]n2)ccc1CN1CCCCC1,-0.9,nt
O=C1c2ccccc2C(Nc2cccnc2)N1Cc1ccccc1Cl (configuration not stated),1.3,i
COC(=O)CNC(=O)Cn1cnc2sc(C)c(S(=O)(=O)N3CCC(C)CC3)c2c1=O,0.4,nt
O=C(CN1CCN(Cc2ccccc2)CC1)Nc1ccc(Cl)cn1,-0.7,i
COCCCNC(=O)Cn1cc2c(n1)CCC(C)C2 (configuration not stated),-0.7,i
FC(F)(F)Oc1ccc(Nc2nc3ccccc3o2)cc1,-0.6,nt
COc1ccc(OC)c(C2=NOC(C(=O)Nc3cccc(C(C)=O)c3)C2)c1 (configuration not stated),0.7,nt
O=C(O)C1CCC(CNCc2cccnc2)CC1 (configuration not stated),0.3,nt
COc1ccc2c(c1)CCc1c(C(=O)N3CC4(C)CC3CC(C)(C)C4)noc1-2 (configuration not stated),-0.8,i
CCOC(=O)N1CCN(S(=O)(=O)c2ccc(Br)s2)CC1,1.3,i
CCOC(=O)C1CCN(C(=O)CSc2cc(=O)n(C)c3ccccc23)CC1,0.8,nt
COc1cccc(C(=O)OCn2nnc3ccccc3c2=O)c1,0.0,i
CC(C)C(c1nnnn1C1CCCC1)N1CCN(C(=O)c2ccco2)CC1 (configuration not stated),-0.2,i
C/C(=N\O)C1(C)N(O)C(C)(C)C(c2ccc(Br)cc2)=[N+]1[O-] (configuration not stated),-2.0,nt
Cc1cc(NC(=O)CCOc2ccccc2)no1,-0.2,i
CCCn1c2ccccc2c2nnc(SCC(=O)Nc3ncccn3)nc21,-8.1,i
CC1Cc2ccccc2N1C(=O)CSc1nnc2n1C(C)(C)Cc1ccccc1-2 (configuration not stated),2.0,i
CCN(CCCNC(=O)C1CCN(S(=O)(=O)c2c(C)[nH]c(=O)[nH]c2=O)CC1)c1cccc(C)c1,4.3,nt
CCOC(=O)c1ccc2[nH]cc(C(C)=O)c(=O)c2c1,3.8,nt
COc1ccc(NC(=O)Cn2nnc(C(N)=O)c2N)c(OC)c1,-0.2,nt
CCOc1ccc2[nH]c(C)c(CN3CCCCC3)c(=O)c2c1,0.1,nt
COc1cc(OC)c(C2C(C(=O)Nc3ccccc3)=C(C)Nc3ncnn32)cc1OC (configuration not stated),0.5,nt
O=C(C1CCN(S(=O)(=O)c2cccs2)CC1)N1CCCCCC1,-0.2,nt
c1ccc(CC2CNc3ccccc3CN2)cc1 (configuration not stated),1.3,nt
COc1ccc(OC)c(NC(=O)C(CC(C)C)NC(=O)C2CCCCC2)c1 (configuration not stated),-1.7,nt
COc1ccc(NC(=O)CSC2=NC(=O)CC(C)=N2)cc1,-1.1,nt
COc1ccccc1CNC(=O)c1ccc(CNc2c(N3CCCC3)c(=O)c2=O)cc1,0.1,nt
CC(=O)C1=C(O)C=C(c2ccco2)CC1c1ccco1 (configuration not stated),0.6,nt
CCc1ccc(NC(=O)c2cccnc2)cc1,0.1,i
COc1ccc(Cl)cc1NC(=O)Cn1cccc1,0.2,nt
Nc1cc(Cl)ccc1Oc1ccccc1,1.7,nt
COC(=O)C1=C(N)Oc2cc(C)n(Cc3ccncc3)c(=O)c2C1c1cccnc1 (configuration not stated),0.9,i
COc1ccc(-c2noc(CSc3nc(N)c(-c4ccccc4)c(=O)[nH]3)n2)cc1OC,-1.3,i
O=C(CSc1nc(-c2ccco2)cc(C(F)(F)F)n1)NCCCn1ccnc1,0.7,i
CC1(C)NC(=O)N(CC(O)CN2CCCCC2)C1=O (configuration not stated),0.5,i
Cc1noc(C(=O)Nc2ccc3c(c2)OCO3)c1Cl,-0.3,i
O=C(Nc1ccc2c(c1)OCO2)c1cc(C2CC2)on1,1.2,nt
Cc1ccc(-c2cc(C(F)F)nc(NCc3cccnc3)n2)cc1,6.2,i
COc1ccccc1NC(=O)CN1C(=O)CCS(=O)(=O)c2ccccc21,0.0,nt
# Going on with the list.
SMILES,Proteasome disasm,VCAM-1 rise
COc1ccc(C2N3CC4(C)CN2CC(C)(C3)C4=O)cc1OC (configuration not stated),0.1,nt
CC(C)N(C(=O)CSc1nnc(-c2cc3ccccc3cc2O)n1Cc1ccco1)C(C)C,0.7,i
COC(=O)c1ccc(Nc2cc(C)nc3nc(C)nn23)cc1,0.4,nt
CCn1nccc1C(=O)Nc1cc(Cl)ccc1Cl,0.0,i
CC(=O)c1cc(-c2ccccc2)n(CC(=O)N2CCC(N3CCCCC3)CC2)c1C,0.5,i
O=C(c1cc(C2CC2)on1)N1CCN(C(c2ccccc2)c2ccccc2)CC1,-0.8,i
COCCNC(=O)CSCc1nc(-c2ccc(SC)cc2)oc1C,1.1,nt
Cc1ccccc1NC(=O)C1CCCN(S(=O)(=O)c2cnc[nH]2)C1 (configuration not stated),0.1,i
O=P(O)(O)CCP(=O)(c1ccccc1)c1ccccc1,0.5,nt
CCOC(=O)c1ccc(N2Cc3cc(C)c(C)cc3C2)cc1O,0.3,i
COc1ccc(OC)c(-c2cc(C(=O)Nc3c(C)nn(Cc4ccccc4C)c3C)no2)c1,2.6,nt
O=C1c2ccccc2C(O)(Cc2ccccc2)N1Cc1ccco1 (configuration not stated),0.9,i
O=C(NO)c1ccccc1O,-2.2,i
COc1ccccc1CNC(=O)CCS(=O)(=O)c1cccs1,1.2,nt
O=C(c1ccc(S(=O)(=O)N2CCOCC2)cc1)N1CCN=C1SCc1cccnc1,-0.1,nt
Cn1c(=O)c(-c2ccccc2)nn2c3ccccc3nc12,1.7,i
COC(=O)CC1C(=O)NCCN1C(=O)NC1CCCCC1 (configuration not stated),-1.2,i
COc1cccc(C(=O)Nc2c3c(nn2-c2ccccc2C)CS(=O)C3)c1OC (configuration not stated),0.0,nt
O=C(CN1CCC(NC(=O)c2ccc(F)cc2)CC1)NCc1ccccc1F,1.9,i
Cc1cc(C)c(C(=O)CC2(O)C(=O)Nc3ccccc32)cc1C (configuration not stated),-0.7,nt
CC1CCCCN1C(=O)CSc1nc2ccsc2c(=O)n1Cc1ccccn1 (configuration not stated),-1.6,nt
CCCc1cc2c(cc1NS(=O)(=O)c1ccc(CCNC(C)=O)cc1)OCO2,-0.6,nt
O=C(NCCN1CCN(c2ccccc2F)CC1)C1CC(=O)N(C2CCCC2)C1 (configuration not stated),0.6,nt
CCC(C)(C)n1nnnc1C(c1ccc(OC)c(OC)c1)N1CCN(c2ccccc2)CC1 (configuration not stated),0.7,i
Cc1noc(/C=C/N(C)C)c1S(=O)(=O)N1CCCC(C(=O)N2CCc3ccccc32)C1 (configuration not stated),0.6,i
CCOC(=O)N1CCN(C(=O)c2ccc3c(c2)ncn3C2CCCC2)CC1,1.1,nt
CCOC(=O)C1CCN(c2c(NCCCN(CC)c3ccccc3)c(=O)c2=O)CC1,1.0,i
Cc1cc(C)nc(SCC(=O)Nc2ncc3c(n2)CCCC3=O)n1,-2.6,i
C=CCOc1ccc(/C(CC)=N/O)c(OC)c1,3.9,i
COc1ccccc1OCC(O)Cn1nc(C)cc1C (configuration not stated),0.7,nt

# Some of these compounds in order of count of non-hydrogen atoms, descending:
SMILES,Proteasome disasm,VCAM-1 rise
Cc1noc(/C=C/N(C)C)c1S(=O)(=O)N1CCCC(C(=O)N2CCc3ccccc32)C1 (configuration not stated),0.6,i
CCOC(=O)C1CCN(c2c(NCCCN(CC)c3ccccc3)c(=O)c2=O)CC1,1.0,i
CCCc1cc2c(cc1NS(=O)(=O)c1ccc(CCNC(C)=O)cc1)OCO2,-0.6,nt
CCOC(=O)N1CCN(C(=O)c2ccc3c(c2)ncn3C2CCCC2)CC1,1.1,nt
Cc1cc(C)nc(SCC(=O)Nc2ncc3c(n2)CCCC3=O)n1,-2.6,i
COc1ccccc1OCC(O)Cn1nc(C)cc1C (configuration not stated),0.7,nt
C=CCOc1ccc(/C(CC)=N/O)c(OC)c1,3.9,i

# (further entries)
SMILES,Proteasome disasm,VCAM-1 rise
CCOc1cc2[nH]c(=O)n(CCCCC(=O)N3CCCCCC3)c(=O)c2cc1OCC,0.1,i
CCOC(=O)CN1CC23C=CC(O2)C(C(=O)NCc2ccc(F)cc2)C3C1=O (configuration not stated),-0.8,i
COc1cc2[nH]c3c(=O)n(CCN(C(C)C)C(C)C)cnc3c2cc1OC,-1.2,i
CCCN(C(=O)Cc1nc(N)n[nH]1)C1(C(=O)Nc2c(C)cccc2C)CCCCC1,-0.3,nt
O=C(Nc1ccc(N2CCCCC2)cc1)c1ccc(F)cc1,2.1,i
Cn1cc(Br)c(C(=O)NC2CCCCC2)n1,0.5,i
CCOC(=O)c1c(C)oc2c1c(C(c1ccncc1)N1CCOCC1)c(O)c1ccccc12 (configuration not stated),0.2,nt
CCn1c(SCC(=O)Nc2cc(C)on2)nc2sc3c(c2c1=O)CCCC3,0.9,i
CC(NC(=O)c1ccc(Cl)cc1)C(=O)NC1=NCCS1 (configuration not stated),-0.3,nt
O=c1[nH]c(SCc2cc(=O)n3ccccc3n2)nc2c1CCC2,-2.2,i
O=C(NCc1ccc(F)cc1)C1CC(=O)N(CCc2ccccc2)C1 (configuration not stated),-0.1,nt
CCN(CC)S(=O)(=O)c1ccc2[nH]cc(C(=O)NCCc3ccccc3)c(=O)c2c1,-1.4,nt
COCCCn1c(SCC(=O)Nc2cccc(C)n2)nnc1-c1ccco1,-2.0,i
O=C(c1ccco1)N1CCN(S(=O)(=O)c2ccc3c(c2)CCN3C(=O)C2CC2)CC1,0.7,nt
O=C(CSc1nnc(Cc2cc(=O)[nH]c(=O)[nH]2)n1-c1ccccc1)N1CCCC1,0.8,nt
O=C(NCC(c1cccnc1)N1CCN(c2ccccc2F)CC1)OCc1ccccc1 (configuration not stated),-0.5,nt
CC(C)(C)n1ncc2c(=O)n(CC(=O)NCc3ccc(F)cc3)cnc21,4.2,i
COc1cccc(C2C(C(=O)OCc3ccccc3)=C(C)Nc3ncnn32)c1OC (configuration not stated),0.5,nt
O=C(CN1CCCN(Cc2ccc(F)cc2Cl)C1=O)NCc1ccccc1,-0.3,nt
O=C(c1cc(S(=O)(=O)N2CCCCC2)ccc1F)N1CCCCC1,-1.5,nt
Cc1cc(C)n2nc(S(=O)(=O)NC3CCCCC3)nc2n1,-1.1,nt
O=C1CSC(c2cn(-c3ccccc3)nc2-c2cc3ccccc3oc2=O)N1Cc1ccco1 (configuration not stated),2.1,nt
COc1ccc(NC(=O)c2nnn(Cc3ccc(SC)cc3)c2N)c(OC)c1,-0.3,nt
Cc1ccc(/C=c2\s/c(=C(/C#N)C(=O)N3CCCC3)n(Cc3ccco3)c2=O)s1,4.3,i
O=C(Cn1c(SCC(=O)N2CCCc3ccccc32)nc2ccccc21)N1CCCC1,-2.0,i
CCOC(=O)c1cnn(-c2cc(C)nc3c(-c4ccccc4)c(C)nn23)c1N,-1.5,i
CCCCOc1ccccc1NC(=O)CSc1nnnn1C(C)(C)C,0.9,nt
COc1cc(NC(=O)CCn2c(=O)[nH]c3ccsc3c2=O)cc(OC)c1,0.2,nt
O=C(Nc1nccs1)C1CCN(S(=O)(=O)c2cnc[nH]2)CC1,-2.1,nt
Brc1ccc(C2=Nn3c(nnc3-c3ccncc3)SC2)cc1,1.3,i
O=C(CSCc1cccs1)N1CCCC1,3.8,i
